Screening results from PubChem BioAssay.
HPGD inh: inhibitors of human 15-hydroxyprostaglandin dehydrogenase (HPGD); Potency, µM, without a hit: at the highest dose activity change, negative = inhibition, usual class: inhibitors; 150,000 tested, 4.3% active; purified HPGD, NADH fluorescence kinetic, PGE2 substrate; P15428; active = well fitted inhibition curve with a large enough effect (not every such curve was filed as active); inconclusive = small, poorly fitted or top-dose-only effect, or another doubt; inactive = no such curve, though single readings can be large or run the other way;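 also: top concentration of the series not given in the record; plate controls included wells without enzyme; inactives centre near -10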
Target sequence (P15428 whole entry, looked up): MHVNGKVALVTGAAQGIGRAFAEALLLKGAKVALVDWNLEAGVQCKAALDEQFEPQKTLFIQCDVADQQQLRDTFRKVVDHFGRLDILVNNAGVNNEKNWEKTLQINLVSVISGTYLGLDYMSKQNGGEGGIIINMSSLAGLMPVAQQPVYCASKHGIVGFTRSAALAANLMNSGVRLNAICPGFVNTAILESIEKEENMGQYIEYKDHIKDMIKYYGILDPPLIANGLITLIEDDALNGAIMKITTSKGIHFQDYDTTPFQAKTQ
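20 nM HPGD preincubated 15 min at room temperature with compound in 50 mM Tris-HCl pH 8, 0.01% Tween 20. Started with 1 mM NAD+ and 30 uM prostaglandin E2; NADH fluorescence (360/450 nm) read 5 times over 30-s intervals, last minus first.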
* hit, by the source's call; ? = inconclusive. % is scaled to controls: 0 for no effect and ±100 for the full control effect; potency is read from the fitted curve at half-maximal effect.

SMILES	HPGD inh
CCCNC(=O)C1CNc2ccccc2O1 (centres undefined)	25.1µM*
Cc1oc(-c2ccccc2)nc1CSc1nc2c(c(=O)[nH]1)CCC2	4.47µM*
NC(=O)c1ccccc1NC(=S)NC(=O)CCc1ccccc1	28.2µM*
O=C(COc1ccc(S(=O)(=O)N2CCCC2)cc1Cl)NC1CCCC1	-5.6%
CC1CCCN(CCCNC(=O)c2coc3nc4ccccc4nc23)C1 (centres undefined)	?
Cn1c(=O)c2c(nc(NCCc3ccccc3)n2CC(=O)NCCc2ccccc2)n(C)c1=O	-10.8%
CN(Cc1ccccc1)S(=O)(=O)c1cccc2cccnc12	22.4µM*
Nc1ccc(N2CCOCC2)c(Cl)c1	-0.5%
COc1ccc(CC(NC(C)=O)C(=O)NC2CCN(c3c(Cc4ccccc4)c(C)nc4ncnn34)CC2)cc1OC (centres undefined)	?
O=C(CNC(=O)c1ccc([N+](=O)[O-])cc1)N/N=C\c1ccc(OC(=O)c2ccccc2)cc1	-30.0%
Cc1ccc(Cl)cc1NC1=NC(=S)N(C(C)C)C12CCCCC2	-6.6%
CCc1ccc(Oc2cc(C)nc(N)n2)cc1	-8.2%
CCOCC(=O)Nc1cc(C(=O)OC)cc(C(=O)OC)c1	-20.1%
CCn1c(=O)cc(SCC(=O)NCc2cccnc2)c2ccccc21	?
CC1(C)OC(=O)C(=NNc2ccccc2)C(=O)O1	-23.0%

Laid out differently: three of the compounds above.
SMILES | HPGD inh
CC1CCCN(CCCNC(=O)c2coc3nc4ccccc4nc23)C1 (centres undefined) | ?
Cc1ccc(Cl)cc1NC1=NC(=S)N(C(C)C)C12CCCCC2 | -6.6%
CC1(C)OC(=O)C(=NNc2ccccc2)C(=O)O1 | -23.0%

Remaining list, next part
SMILES	HPGD inh
Cc1ccc(-c2csc3ncnc(-n4nnc5ccccc54)c23)cc1C	-17.9%
COc1ccc(N=C2SCC(=O)N2c2ccc(OC)cc2)cc1	-8.0%
COC(=O)c1ccc(SCC(=O)NC2CCCC2)c([N+](=O)[O-])c1	35.5µM*
CCOc1ccc(NC(=O)Nc2ccc3nccnc3c2)cc1	-10.4%
Cc1ccc(-c2nnc(SCC(=O)NCC3CCCO3)n2C)cc1 (centres undefined)	-11.1%
NCCCCC(NC(CCc1ccccc1)C(=O)O)C(=O)N1CCCC1C(=O)O (centres undefined)	-3.2%
Cn1c(SCC(=O)N2CCOCC2)nc(O)cc1=O	-20.5%
CCOc1ccc(NC(=O)CSCc2cnn(-c3ccccc3)c2-n2cccc2)cc1	-8.0%
COc1cc(/C=C2\SC(c3ccc(C)cc3)=NC2=O)ccc1O	?
O=C(/C=C1\SC(=O)N(CC(=O)Nc2ccc(Cl)cc2)C1=O)Nc1ccc(F)cc1	-12.3%
N#Cc1nc(COc2ccccc2F)oc1N1CCCCCC1	?
CCCc1nc(NCc2ccc3c(c2)OCO3)c2nnn(Cc3ccccc3Cl)c2n1	-9.7%
COC(=O)c1sc2nc[nH]c(=O)c2c1C	?
Cc1noc(C)c1C(=O)OCC(=O)Nc1ccccc1C(=O)NC(C)c1ccccc1 (centres undefined)	-5.4%
O=C(c1ccc(S(=O)(=O)N2CCOCC2)cc1)N1CCN(c2cccc(Cl)c2)CC1	-19.0%
COc1ccc(C2=NCC(CSc3nnc(-c4ccc5c(c4)OCO5)o3)S2)cc1 (centres undefined)	22.4µM*
O=C(NCc1ccc(F)cc1)C(=O)NCC1OCCN1S(=O)(=O)c1cccs1 (centres undefined)	-5.4%
COCCCNC(=O)Cn1ncc2c(=O)oc3ccccc3c21	-10.3%
COc1cc(CN2CCN(C(=O)CC(C)C)CC2)cc(OC)c1O	-1.9%
CC(C)(C)NC(=O)C1N(c2cccnc2)C(=O)C2C(C(=O)Nc3ccccc3)C3(C)C=CC21O3 (centres undefined)	-0.5%
Cc1ccc(C(=O)COC(=O)C2C3C=CC(C3)C2C(=O)OCC(=O)c2ccc(C)c(C)c2)cc1C (centres undefined)	-14.9%
O=S(=O)(c1ccc(OCC(O)CN2CCN(c3ccccc3Cl)CC2)cc1)N1CCOCC1 (centres undefined)	-14.2%
O=C1N=C2SCCN2/C1=C\c1c(Cl)cccc1Cl	-11.1%
CON/C=C(\C=Nc1ccc(Cl)cc1Cl)c1ncc(C(F)(F)F)cc1Cl	-3.0%
CN(C)C(=O)c1cc2cc([N+](=O)[O-])ccc2s1	-15.3%
O=C(Nc1cccc(C(F)(F)F)c1)c1cc2c(=O)c3ccccc3oc2nc1C(F)(F)F	-6.4%
CC(=O)NCc1ccc(S(=O)(=O)N/N=C/c2ccc(Br)cc2)cc1	-15.0%
COc1cc(C2C(C(=O)c3ccc(C)o3)=C(O)C(=O)N2Cc2cccnc2)ccc1O (centres undefined)	-7.0%
CCOC(=O)CSc1nnnn1-c1cc(OC)c(Cl)cc1OC	-12.8%
Cc1cc2c(c(=O)n1CC1CCCO1)C(c1ccc3c(c1)OCO3)C(C#N)=C(N)O2 (centres undefined)	-16.1%
Cc1noc(/C=C/c2ccco2)c1S(=O)(=O)N1CCC(C(=O)N(C)Cc2ccccc2)CC1	-27.0%
Clc1ccc(OCCCn2cncn2)cc1Cl	-6.7%
Cn1cccc1/C=C1\SC(=S)N(NC(=O)c2ccccc2Cl)C1=O	-2.2%
CC1CCN(S(=O)(=O)c2ccc(C(=O)NCc3ccc4c(c3)OCO4)cc2)CC1	-6.8%
Cc1cccc(C(=O)Nc2ccc(C(=O)/C=C/c3cccs3)cc2)c1	-24.9%
O=C(Cn1nc(C(=O)O)c2ccccc2c1=O)NCC1CCCO1 (centres undefined)	-12.0%
Cc1cccc(/C=N/Nc2cc(N3CCOCC3)nc(N3CCOCC3)n2)c1	?
Clc1ccc(/C=N/c2c(-c3ccco3)nc3ccccn23)cc1	?
COc1ccc(CN2C(=O)CS(=O)CC2=O)cc1OC	-12.5%
CNC(=S)N(Cc1cccs1)Cc1cc2cc(OC)c(OC)cc2[nH]c1=O	?
CCNC(=S)NNC(=O)c1csc2ccccc12	-10.0%
Cc1ccc2[nH]c(=O)c(CN(CCCN3CCOCC3)Cc3nnnn3C3CCCC3)cc2c1	-3.2%
CC(C)c1ccc(CCNC(=O)c2ccc([N+](=O)[O-])cc2)cc1	-19.2%
COc1cc(OC)cc(OC)c1	-8.1%
COC(=O)C1=C(C)N(Cc2ccccc2)C(=O)N[C@H]1CCc1ccccc1	0.2%

Some of the entries above in a different format.
structure | HPGD inh
Cn1cccc1/C=C1\SC(=S)N(NC(=O)c2ccccc2Cl)C1=O | -2.2%
CC1CCN(S(=O)(=O)c2ccc(C(=O)NCc3ccc4c(c3)OCO4)cc2)CC1 | -6.8%

The main list resumes, starting 3 compounds before the break.
SMILES	HPGD inh
CC(C)c1ccc(CCNC(=O)c2ccc([N+](=O)[O-])cc2)cc1	-19.2%
COc1cc(OC)cc(OC)c1	-8.1%
COC(=O)C1=C(C)N(Cc2ccccc2)C(=O)N[C@H]1CCc1ccccc1	0.2%
CN(C)CCNC(=O)c1ccc(Cc2nc3ccccc3[nH]2)cc1	2.9%
O=C(NCC(=O)N(CCc1ccccc1)C(C(=O)NC1CCCCC1)c1ccncc1)c1ccco1 (centres undefined)	-15.4%
C=CCn1c(C(C)NC(=O)c2ccccc2C)n[nH]c1=S (centres undefined)	-8.2%
Cc1ccc(NS(=O)(=O)c2ccc(CCC(=O)NCCCOC(C)C)cc2)cc1	-2.2%
COC(=O)c1c(Cl)c(Cl)c(C(=O)OC)c(Cl)c1Cl	-11.5%
Cc1ccc(-n2c(=O)c3sccc3n(Cc3cc(=O)n4cc(Cl)ccc4n3)c2=O)cc1F	?
CC(N=Cc1ccccc1O)c1ccccc1 (centres undefined)	-17.5%
Fc1ccccc1-c1csc(=Nc2cccnc2)n1CCCn1ccnc1	-9.9%
COc1ccc(C(NC(=O)N2CC(C)OC(C)C2)C(Cl)(Cl)Cl)cc1F (centres undefined)	7.3%
O=S(=O)(c1ccccc1)c1nc(Nc2ccccc2N2CCOCC2)sc1Cl	-10.2%
COc1ccc(C(=O)N2CCC[C@@]3(CCN(c4ccccc4)C3)C2)cc1	14.1µM*
Cc1ccccc1-n1nc2c(c1NC(=O)c1ccc(S(=O)(=O)N(C)C)cc1)CSC2	-5.8%
CC1CC(=O)Nc2ccccc2N1S(=O)(=O)c1ccccc1 (centres undefined)	-13.8%
O=S(=O)(NC1CCCC1)c1ccc(S(=O)(=O)N2CCN(c3ccccc3)CC2)cc1	4.7%
O=S(=O)(c1ccc(-c2csc(-c3cccnc3)n2)cc1)N1CCCCC1	28.2µM*
COc1ccc(-c2c(=O)n(OCc3ccccn3)c3ccccc3[n+]2[O-])cc1OC	-1.2%
CCOC(=O)c1c(C)c(C(=O)NC(C)COC)c(C)n1C (centres undefined)	-5.6%
Cc1nc2ncnn2c(C)c1CCC(=O)Nc1csc(N)n1	-12.1%
CN1c2ccccc2C2(C)CCCC3=Cc4cc([N+](=O)[O-])cc([N+](=O)[O-])c4OC312 (centres undefined)	-10.2%
CCOC(=O)c1ccc(NC(=O)Nc2ccc(S(N)(=O)=O)cc2)cc1	-9.7%
COc1cccc(NC(=S)N2CCc3cc(OC)c(OC)cc3C2COc2ccc3c(C)cc(=O)oc3c2)c1 (centres undefined)	?
CCOc1ccc(C2CC(=O)NC(SC)=C2C#N)cc1 (centres undefined)	-6.9%
O=S(=O)(Cc1cccc(F)c1)c1c[nH]c2ccccc12	-6.9%
COc1nc(N2CCCCCC2)nc(N2CCCCCC2)n1	-11.7%
CCn1c(N2CCN(C(=S)NC)CC2)nc2ccccc21	-9.4%
Cc1ccc2oc(=O)c3cnn(CC(=O)NCCN4CCOCC4)c3c2c1	-8.8%
O=C(c1cccnc1)N1CCN(Cc2cccc(Br)c2)CC1	-10.9%
Cc1ccccc1C(=O)N/N=C/c1ccsc1C	-16.5%
CCCCCCCCCc1nc2sc3c(c2c(=O)n1NC(=O)c1ccccc1[N+](=O)[O-])CC(C)(C)OC3	-9.2%
COc1nn(C(C)C(=O)N2N=C(C(F)F)CC2(O)C(F)F)cc1[N+](=O)[O-] (centres undefined)	-10.2%
CCCCOC(=O)Nc1nnc(CCOCC)s1	-4.4%
CCSc1nc(C)c(C(C)=O)cc1C#N	-4.3%
O=C(Oc1cccc(NC(=O)c2ccco2)c1)c1ccc(Br)c(S(=O)(=O)N2CCCCC2)c1	?
COc1ccc(/C(N)=N/OC(=O)c2ccc(C)c([N+](=O)[O-])c2)cc1OC	-9.6%
Cc1ccc(-c2csc(C3C(N)=NC(S)=C(C#N)C34CCCCC4)n2)cc1 (centres undefined)	-13.3%
COc1ccc(-n2nc3c(c2NC(=O)c2c(-c4ccccc4Cl)noc2C)CS(=O)(=O)C3)cc1	-19.0%
CCC(C)(C)n1nnnc1C(c1cccs1)N1CCN(Cc2ccccc2)CC1 (centres undefined)	-2.9%
CC(CCC(=O)O)C1CCC2C3CC[C@H]4CC(O)CC[C@@]4(C)C3CC(O)[C@]12C (some centres undefined)	0.3%
Cc1ccc(-n2cc(C(C)(C)C)[nH]c2=S)cc1	-20.1%
Cc1ccc(S(=O)(=O)NNC(=O)c2ccccc2O)cc1	?
O=C(N/N=C/c1ccc(-c2ccccc2[N+](=O)[O-])o1)c1cncc(Br)c1	-16.2%
C=CCn1c(SC(C)C(=O)NCc2ccc3c(c2)OCO3)nnc1C1CCCCC1 (centres undefined)	-14.1%
CCOC(=O)Cn1c(N2CCOCC2)nc2c1c(=O)[nH]c(=O)n2C	-4.6%
O=C1c2ccccc2-c2ccc(C(=O)N3CCOCC3)cc21	11.2µM*
CS(=O)(=O)N(CC(=O)NCCc1ccccc1)C1CCCCC1	-9.4%
Cc1ccc(/C=N/N=C2/NC(=O)C(CC(=O)Nc3ccc(Cl)cc3)S2)o1 (centres undefined)	-17.3%
Cc1ccc(S(=O)(=O)N2CCOCC2)cc1C(=O)Nc1ccc(-c2cn3ccsc3n2)cc1	-25.4%
O=C(Oc1ccc(F)cc1C(=O)/C=C/c1cccs1)c1cccc([N+](=O)[O-])c1	-10.4%
CC(C)CNC(=O)c1cc([N+](=O)[O-])ccc1N1CCCCC1	-9.4%
COC(=O)c1ccc(C(C(=O)NC2CCCCC2)N(Cc2ccc(F)cc2)C(=O)Cc2cccs2)cc1 (centres undefined)	-4.1%
O=C(c1ccc(Cc2nc3ccccc3[nH]2)cc1)N1CCOCC1	-7.2%
Cc1cc(S(=O)(=O)N2CCN(c3ccccc3C)CC2)ccc1F	-9.4%
CC(C)(C)C1CCC(=NNC(=O)c2cc(-c3ccccc3)n[nH]2)CC1 (centres undefined)	-7.9%
Cc1cc(C)n(-c2nc(NC(C)C)nc(NC(C)C)n2)n1	-5.7%
CC(=O)c1cccc(NC(=O)c2ccc(N(Cc3ccccc3C)S(C)(=O)=O)cc2)c1	-18.3%
CCn1c(SCC(=O)N2CCOCC2)nnc1-c1cccs1	-9.0%
COc1ccc([N+](=O)[O-])cc1NC(=O)c1ccc(CN(c2ccc(C)c(C)c2)S(C)(=O)=O)cc1	-12.3%
Cc1ccc(C(=O)OCC(=O)NC(=O)c2cccn2C)cc1	-9.8%
O=C(CNc1cc(S(=O)(=O)N2CCCC2)ccc1OCC(F)(F)F)Nc1ccc(SC(F)F)cc1	-33.1%
O=C1N(Cc2ccccc2)CCCC12CCCN(Cc1ccccc1)C2=O	-15.4%
(further entries)
SMILES	HPGD inh
Cc1cc(-c2ccccc2)n2ncc(C#N)c2n1	?
CC1CCCC(NC(=O)COC(=O)[C@@H]2CC(O)CN2S(=O)(=O)c2ccc3c(c2)OCCO3)C1C (some centres undefined)	-3.5%
O=C(CSc1nc2ccccc2n1-c1ccccc1)NCC1CCCO1 (centres undefined)	?
CCOC(=O)c1c(NC(=O)c2nc3n(n2)C(C(F)F)CC(C)N3)sc2c1CCCC2 (centres undefined)	?
Nc1nnc(-c2ccccc2)c(-c2ccccc2)n1	-1.8%
Cc1nnc(-c2ccccc2)nc1N1CCOCC1	-7.2%

These rows are one share of the data. The share of hits here may be higher or lower than overall.
